Compound activity deposited in PubChem by National Center for Advancing Translational Sciences (NCATS).
PINK1 expr mod – modulators of PINK1 expression. PINK1 immunofluorescence, high-content cytometry, 24 h. Potency, µM (highest dose often 76.6 µM), without a hit: at the top dose activation (PINK1 increase), usual class: activators. hit rate 0.2% among 410,000. AID 624263; active = well fitted activation curve with a large enough effect; inconclusive = small, poorly fitted or top-dose-only effect; inactive = flat fitted curve, though single readings scatter; cell line not stated here;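 also: potency is read from the fitted curve at half-maximal effect; % of control where 0% means no effect; nearly all actives have a fitted effect of over 65% in size; a mitochondrial uncoupler was the plate control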
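Stable cell line, 250 cells/well, 12 h attachment; compounds pinned at 5 concentrations, 24 h; CCCP control. Fixed with nuclear dye, primary antibodies 12 h at 10 degrees C, secondary plus cell stain; laser-scanning cytometer read.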
gsp agonist – gsp mutant agonism; gsp mutant cells, cAMP HTRF, 30 min; control for the full effect not named in the record; Potency, µM (highest dose often 76.9 µM), without a hit: at the top dose activation (cAMP increase), actives largely listed as activators; hit rate 0.13% among 340,000; AID 624287; active = well fitted activation curve with a large enough effect; inconclusive = small, poorly fitted or top-dose-only effect, or another doubt; inactive = no such curve, though single readings can be large or run the other way; cell line not stated here;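 also: phosphodiesterase inhibitor Ro 20-1724 added with compounds to block cAMP breakdown; potency is read from the fitted curve at half-maximal effect; nearly all actives have a fitted effect of over 60% in size; about a fifth of the inactives were tested at one dose only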
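Cells stably selected in G418 were plated at 2000/well, grown 16-24 hr, then given compounds in DMSO with the PDE inhibitor […] (300 uM solution added) for 30 min at 37C; cAMP was read by HTRF.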
gsp antagonist – gsp mutant antagonism | gsp-mutant cells, cAMP HTRF, 30 min; control for the full effect not named in the record | Potency, µM (doses to about 76.9 µM), for the others: at the top dose activity change, negative = inhibition, actives largely listed as inhibitors | hit rate 0.4% among 340,000; active = falling curve of any shape with a large fitted effect; inconclusive = falling curve, mostly with a smaller effect; inactive = flat or rising curve; cell line not stated here;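 also: intracellular cAMP measured with PDE inhibitor Ro 20-1724 present during compound exposure; potency is read from the fitted curve at half-maximal effect; % is scaled to controls: 0 for no effect and ±100 for the full control effect; nearly all actives have a fitted effect of over 65% in size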
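Cells, 2000/well, grown 16–24 h in DMEM 10% FBS with 0.5 mg/ml G418, then compounds plus […] (300 uM addition stock), 30 min at 37C. cAMP read by HTRF (cAMP-d2 and anti-cAMP antibody-K in lysis buffer) after 30 min RT.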
D2 ag – activates the human D2 dopamine receptor. P14416. DiscoveRx PathHunter D2 beta-arrestin, luminescence, 90 min; 100% = 57 uM dopamine signal. activation, % (test concentration not listed). hit rate 0.084% among 360,000. AID 624465; in the data active = activation above about 40%; inconclusive = about 15% to 40%; inactive = below about 15%; also: compound concentration not given in the record; the text of the record calls up to 30% inactive
Target sequence (P14416 whole entry, looked up): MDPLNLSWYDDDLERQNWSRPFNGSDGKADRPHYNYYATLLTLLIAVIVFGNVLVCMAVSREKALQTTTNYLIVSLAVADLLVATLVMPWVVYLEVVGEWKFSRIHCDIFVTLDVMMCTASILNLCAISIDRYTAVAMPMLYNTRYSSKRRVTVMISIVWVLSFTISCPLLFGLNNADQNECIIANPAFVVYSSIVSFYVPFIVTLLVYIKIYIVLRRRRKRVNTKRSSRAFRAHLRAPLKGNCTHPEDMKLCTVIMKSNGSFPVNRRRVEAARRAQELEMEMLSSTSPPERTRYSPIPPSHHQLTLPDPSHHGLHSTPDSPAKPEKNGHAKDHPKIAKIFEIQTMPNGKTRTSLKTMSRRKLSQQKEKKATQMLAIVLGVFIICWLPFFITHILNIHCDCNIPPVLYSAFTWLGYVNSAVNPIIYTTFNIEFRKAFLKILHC
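Agonist mode: compounds alone added to overnight-plated D2 PathHunter cells for 90 min at 37 C, with 57 uM final dopamine (EC100) defining full response. Beta-arrestin recruitment detected by chemiluminescent reagent, read after 1 h at ambient temperature.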
Sfp PPTase inh – Sfp phosphopantetheinyl transferase inhibition. Q9F4F7. Biochemical Sfp PPTase activity, qHTS. Potency, µM, for the others: max response, negative = inhibition, actives largely listed as inhibitors. hit rate 3.5% among 310,000. AID 1490; active = well fitted inhibition curve with a large enough effect; inconclusive = small, poorly fitted or top-dose-only effect, or another doubt; inactive = no such curve, though single readings can be large or run the other way;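 also: the enzyme is Sfp with the accession as filed and its product quenches rhodamine fluorescence; potency is read from the fitted curve at half-maximal effect; 0% = enzyme reaction without inhibitor and -100% = no enzyme wells; top concentration of the series not given in the record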
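Step 1, compound plus 15 nM Sfp-PPTase, 15 min, room temperature. Step 2, add rhodamine-CoA (5 uM) and BHQ-2-YbbR (12.5 uM). Step 3, read 525/598 nm fluorescence at 0 and 30 min.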
ClpP mod – qHTS Assay for Activators of ClpP; ATP-dependent Clp protease proteolytic subunit (Bacillus subtilis (strain 168)), P80244; purified B. subtilis ClpP, FRET peptide cleavage, 20 min; Potency, µM (titrated, usually from 57.5 µM), for the others: top-dose activity change, negative = active; hit rate 1.9% among 340,000; AID 651965, 2013; active = well fitted falling curve with a large enough effect; inconclusive = small, poorly fitted or top-dose-only effect; inactive = no such curve, though single readings can be large or run the other way; also: potency is read from the fitted curve at half-maximal effect; the source files actives as falling curves though it sought activators and does not explain the sign; nearly all actives have a fitted effect of over 65% in size; many hits overshoot -100%
Target sequence (P80244 whole entry, looked up): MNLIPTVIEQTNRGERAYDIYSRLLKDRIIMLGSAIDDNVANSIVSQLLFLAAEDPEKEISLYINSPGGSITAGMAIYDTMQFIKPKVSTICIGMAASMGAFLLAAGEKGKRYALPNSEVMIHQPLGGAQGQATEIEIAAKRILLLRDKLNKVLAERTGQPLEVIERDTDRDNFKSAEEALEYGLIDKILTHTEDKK
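Purified B. subtilis ClpP, 10 microg/mL final in Tris/HCl pH8 with KCl, BSA, glycerol and Tween-20, cleaved an Abz/nitrotyrosine-quenched decapeptide. Fluorescence (ex 320, em 430) was read at 0 and 20 min at room temperature. Delta was normalized to 5.8 microM ADEP and DMSO/no-enzyme controls.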
Menin MLL FP FL – menin-MLL binding inhibition, fluorescein peptide; Fluorescence polarization, fluorescein-MLL peptide displacement from menin; FP activity change, % at 61.4 µM; 290,000 tested, under 10 active; AID 1766; inconclusive = falling polarisation curve, or a change in total fluorescence; inactive = total fluorescence flat and polarisation flat or rising; no compound was filed as active; the % refers to the polarisation; negative = inhibition;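 also: % of control where 0% means no effect; inhibitors lower the polarisation; unlabelled MLL peptide was the positive control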
The depositor's hits bear a star; ? = inconclusive; . = not tested or not shown; [ ] = dose if it differs, or a comment.

SMILES	PINK1 expr mod	gsp agonist	gsp antagonist	D2 ag	Sfp PPTase inh	ClpP mod	Menin MLL FP FL
C/C=C\C=C/C(=O)Nc1cccc(C2=NOC3(C2)C[C@@H](C(N)=O)N(C(=O)CCCCC)C3)c1 (stereo partly drawn)	-1.7%	.	1%	3.2	25µM*	-0.1%	-1.1
O=C(Cn1nnc2ccccc21)OCC(=O)c1ccc(F)cc1	-0.7%	-7%[15.4 µM]	1%	-3.4	6%	.	5.3
CC(=O)Nc1cc(-c2ccccc2Cl)cn2c(-c3ccc(S(C)(=O)=O)cc3)cnc12	2.4%	.	.	5.4	.	5.2%	.
Cc1cc(C)nc(N2CCC(C(=O)NCC3CCCCC3)CC2)n1	0.0%	-22%	11%	1.0	14%	-4.2%	5.7
CCn1c(Cc2ccccc2)nnc1SCC(=O)Nc1nc2ccccc2s1	-0.4%	11%	4%	1.3	10%	?	-0.5
Cc1ccc(O)c(NC(=O)c2ccc3c(c2)C(=O)N(Cc2cccnc2)C3=O)c1	2.0%	-26%	-2%	9.7	20%	?	5.0
Cc1nc(SCCC(=O)O)c2ccccc2n1	.	?	47%[activator]	-1.9	-7%	5.1%	1.4
O=C(CO/N=C/c1ccccc1OC(F)F)NC1CCCCC1	4.6%	-4%	2%	-2.5	-1%	.	5.4
Cc1ccc(C)c(NC(=O)C2C(c3ccccc3)C2(Cl)Cl)c1 (stereo not drawn)	1.1%[38.3 µM]	-29%	-13%	2.3	12%	-0.2%	3.8
CC(Cc1cccs1)NC(=O)c1cccs1 (stereo not drawn)	-0.1%	7%	12%	4.3	18%	.	1.8
CCOC(=O)c1c(S(=O)(=O)NCC(=O)Nc2ccccc2OC)c(C)n(C)c1C	-1.8%	15%	-2%	4.9	14%	-3.1%	-5.3
O=C(NCc1ccc(Cl)cc1)C1CCCN(C(=O)c2ccc(Cl)cc2)C1 (stereo not drawn)	-0.9%	?	-9%	-0.9	.	0.6%	.
COc1ccc(C)cc1-n1c(C)cc(C=O)c1C	4.2%	-6%[15.4 µM]	-6%	-1.0	13%	1.6%	-0.5
CN(Cc1ccccc1)C(=O)c1ccc(Nc2nc(C(N)Cc3ccc(C(F)(F)F)cc3)cs2)nc1 (stereo not drawn)	-1.0%	.	.	8.0	.	?	.
COc1ccc(C)cc1NC(=O)c1[nH]c(C)c(C(C)=O)c1C	6.9%	-20%	9%	-5.1	2%	-4.0%	0.7
COCCNC(=O)Cn1c(=O)n(CCCC(=O)NCc2ccc3c(c2)OCO3)c(=O)c2sccc21	0.8%	-1%[15.4 µM]	15%	-5.9	9%	2.3%	-4.3
COc1ccc(-c2nc3ccc(Br)cn3c2Cc2ccc(C)cc2)cc1OC	?	.	.	4.8	.	-15%	.
Cc1cc(C(=O)OCc2nc3ccccc3s2)c(C)o1	?	-10%	2%	-2.2	-22%	-3.3%	0.1
COCCn1c(SCC(=O)NC(C)c2ccc(F)cc2)nc2ccccc21 (stereo not drawn)	1.5%	21%	-3%	-3.8	5%	.	-2.4
CC(C)CNC(=O)c1ccc2c(c1)C(=O)N(Cc1ccco1)C2=O	0.7%	4%[15.4 µM]	1%	-2.2	2%	-0.7%	1.4
Oc1ccc(Cl)cc1C1=NNC(c2cc(Br)cc3c2OCOC3)C1 (stereo not drawn)	16%	?	2%	1.6	-1%	.	14
Cc1nn(Cc2ccccc2Cl)c2sc(C(=O)Nc3ccccc3N3CCOCC3)cc12	1.5%	12%	-9%	-1.1	16%	?	5.0
Cc1cccc(NC(=S)NC2CC3CCC(C2)N3Cc2ccco2)c1C (stereo not drawn)	.	1%	1%	-1.0	15%	0.2%	1.3
CC(=O)Nc1ccc(S(=O)(=O)NCCC(=O)Nc2ccc(C)c(F)c2)cc1	1.8%	10%	4%	3.7	14%	.	-0.7
Cc1ccccc1CSCC(=O)Nc1c(C)n(C)n(-c2ccccc2)c1=O	-1.1%	20%	-1%	-3.6	9%	1.8%	-0.6
Additional results
SMILES	PINK1 expr mod	gsp agonist	gsp antagonist	D2 ag	Sfp PPTase inh	ClpP mod	Menin MLL FP FL
O=c1cc(-c2ccccc2)oc2ccccc12	0.2%	.	1%	-5.9	.	-0.2%	.
CCCc1nc2ccccc2n1CCOC	2.9%	-32%[inhibitor]	-4%	2.5	5%	-9.1%	-0.9
COc1cc(NC(=O)c2ccccc2F)c(OC)cc1NC(=O)CN1CCCCC1	0.6%	4%[15.4 µM]	-24%	3.8	-11%	.	0.9
N/C(=N\OC(=O)CCc1ccccc1)c1ccc(Cl)cc1	-0.4%[38.3 µM]	-4%	-8%	-0.3	7%	-0.8%	1.2
C=CC1=C2C=C(C3CC3)N(CC3CC3)C=C2C(=O)C(C)(OC(=O)c2ccco2)C1=O (stereo not drawn)	1.3%	?	-4%	11	-7%	-0.1%	-5.2[11.7 µM]
CCC(=O)N1CCN(c2ccc(NC(=O)COc3ccccc3Cl)cc2)CC1	12%[38.3 µM]	-2%	?	6.1	10%	0.1%	8.1
Clc1cccc(-c2nc(NCCCN3CCOCC3)c3ccccc3n2)c1	3.5%	-58%[inhibitor]	-3%	0.5	?	-5.1%	4.7
O=C(N1CCOCC1)N1CCN(c2ccccc2)CC1	-0.2%	-4%	6%	-1.7	18%	0.1%	1.0
COc1ccc(C(O)c2ncc(-c3cccc(F)c3)[nH]2)cc1F (stereo not drawn)	-0.3%	.	.	-3.1	.	-0.4%	.
Cc1cc2oc(=O)cc(CN3CCN(Cc4ccccc4)CC3)c2cc1Cl	2.0%	-1%	-13%	-4.6	-8%	-2.1%	5.3
O=C(O)c1ccc(Oc2ccc([N+](=O)[O-])cc2)c([N+](=O)[O-])c1	-2.7%	26%	-17%	-4.8	.	1.4%	.
COc1ccc(S(=O)(=O)Nc2cccc(N(C)S(C)(=O)=O)c2)cc1Br	4.1%	10%	-9%	-1.3	1%	-1.7%	4.1
CCOCCn1c(CN2CCC(Cc3ccccc3)CC2)nc2c1c(=O)n(C)c(=O)n2C	.	-47%[inhibitor]	-9%	-3.3	5%	0.4%	1.8
Cn1cccc1CC(=O)NNC(=S)NC(=O)c1ccc(F)cc1	2.2%	?	23%	-4.0	-8%	0.3%	3.5
CCC(=O)N1CCN(c2ccnc3cc(Cl)ccc23)CC1	-2.1%	-31%[inhibitor][15.4 µM]	-4%	2.0	8%	.	6.5
Cc1ccccc1NC(=O)C1CCN(C(=O)NC2CCCCC2)CC1	2.2%	4%[15.4 µM]	-18%	-1.1	10%	.	-1.2
O=C(CSc1nnc(Cc2ccccc2)o1)NCCc1ccccc1	?	-4%	-8%	-0.5	-5%	-3.2%	3.6
Cc1ccc(S(=O)(=O)NCCC(=O)Nc2ccc(S(=O)(=O)NC(C)C)cc2)cc1	-0.2%	-3%[15.4 µM]	-13%	-12	-14%	-0.4%	-5.1
Cc1nc2cc(C(F)(F)F)ccc2n1CCNc1nc(-c2cc(Cl)c(N)c(Cl)c2)cs1	9.1%	8%	-19%	6.9	9%	0.7%	4.6
CCOc1ccc(NC(=O)C2CCCN(S(=O)(=O)c3ccc4c(c3)CC(C)N4C(C)=O)C2)cc1 (stereo not drawn)	-1.7%	-25%	-18%	4.8	6%	2.6%	-0.6
Cc1ccc2[nH]c3c(c2c1)CN(C(=O)CN1CCN(c2ccccn2)CC1)CC3	-2.3%	-1%	-12%	8.7	-12%	-9.6%	-28
O=C(Nc1ccccc1)NC1CCCc2ccccc21 (stereo not drawn)	2.1%	16%	50%[activator]	2.1	27%	1.2%	-2.4
COc1ccc(COC(=O)c2sc3nc4n(c(=O)c3c2C)CCC4)cc1	-2.0%	-4%	-12%	-1.3	.	-17%	.
Cn1nc(C(F)(F)F)c(C(=O)Nc2ccc(F)cc2F)c1Sc1ccc(C(F)(F)F)cc1	8.3%[38.3 µM]	-59%[inhibitor]	-3%	-5.2	10%	0.8%	4.6
CC1CCC(NC(=O)C2CCC(CNS(=O)(=O)c3cccc4nsnc34)CC2)CC1 (stereo not drawn)	7.2%	-34%[inhibitor]	-7%	-8.1	-1%	-0.5%	0.2
Later entries
SMILES	PINK1 expr mod	gsp agonist	gsp antagonist	D2 ag	Sfp PPTase inh	ClpP mod	Menin MLL FP FL
Cc1nnc(SCc2nnc(-c3ccccc3Br)o2)n1-c1ccccc1	3.1%[38.3 µM]	-59%[inhibitor]	0%	-3.4	-3%	0.3%	-0.5
CCOc1ccccc1CNc1nc2ccccc2n1C	0.9%	-38%[inhibitor]	-4%	0.8	14%	-1.8%	-2.2
CN1CCN(CCNC(=O)Nc2ccc([N+](=O)[O-])cc2)CC1	2.7%	33%	2%	-2.1	2%	1.3%	-2.8
COc1ccc(-c2noc(CCC(=O)N(C)c3cccc(C)c3)n2)cc1	0.1%	13%	-13%	-1.2	-21%	-0.1%	-1.0
COc1ccc(C(=O)N=c2sc3ccccc3n2C)cc1	1.2%	23%[15.4 µM]	0%	-3.2	-3%	0.1%	-2.6
CN(CC(=O)Nc1ccc(N2CCOCC2)cc1)Cc1c(O)ccc2ccccc12	-0.1%	-4%[15.4 µM]	-8%	5.3	?	.	1.0
Cc1c(O)ccc(C(=O)CN2CCN(c3ccccc3)CC2)c1O	-0.1%	3%	6%	-8.5	10%	-3.0%	8.3
Cc1cccc(OCCNC(=O)c2ncn[nH]2)c1	?	18%	3%	-2.9	-5%	0.9%	-3.3
COc1ccc(-n2c(C)nnc2SCC(=O)N2CCOCC2)cc1	0.7%	-53%[inhibitor]	8%	3.3	0%	.	-0.3
Cc1ccc(NC(=S)NCC2CCN(C(C)c3ccccc3)C2)cc1C (stereo not drawn)	1.2%	-1%	15%	-3.3	11%	1.1%	-1.9
O=C(NNC1=C(C(=O)C(F)(F)F)CCC1)c1ccncc1	3.0%	3%[15.4 µM]	2%	0.4	7%	.	1.5
CCC(NC(=O)C1CCC1)c1ccc(C)cc1 (stereo not drawn)	-0.8%	4%	-7%	-2.1	0%	-1.8%	-0.8
NC(=O)C1C2CCC(C2)C1C(N)=O (stereo not drawn)	-1.1%	-13%[15.4 µM]	6%	1.1	.	1.0%	.
